Rango complex inh: Rango-importin beta binding inhibition; Q14974; Rango CFP/YFP FRET sensor + importin beta, 45 min; Potency, µM (highest dose often 92.2 µM), for inactives: at the highest dose inhibition of complex formation; actives 0.031% (n = 340,000); active = rising FRET ratio curve, often small or poorly fitted; inconclusive = mostly compound fluorescence or quenching in the first reads; inactive = flat curves in all reads;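 further: potency means the concentration at half of the fitted maximal effect; 0% = DMSO wells and 100% = buffer wells lacking importin beta; nearly all actives have a fitted effect of over 15% in size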
Target sequence (Q14974 whole entry, looked up): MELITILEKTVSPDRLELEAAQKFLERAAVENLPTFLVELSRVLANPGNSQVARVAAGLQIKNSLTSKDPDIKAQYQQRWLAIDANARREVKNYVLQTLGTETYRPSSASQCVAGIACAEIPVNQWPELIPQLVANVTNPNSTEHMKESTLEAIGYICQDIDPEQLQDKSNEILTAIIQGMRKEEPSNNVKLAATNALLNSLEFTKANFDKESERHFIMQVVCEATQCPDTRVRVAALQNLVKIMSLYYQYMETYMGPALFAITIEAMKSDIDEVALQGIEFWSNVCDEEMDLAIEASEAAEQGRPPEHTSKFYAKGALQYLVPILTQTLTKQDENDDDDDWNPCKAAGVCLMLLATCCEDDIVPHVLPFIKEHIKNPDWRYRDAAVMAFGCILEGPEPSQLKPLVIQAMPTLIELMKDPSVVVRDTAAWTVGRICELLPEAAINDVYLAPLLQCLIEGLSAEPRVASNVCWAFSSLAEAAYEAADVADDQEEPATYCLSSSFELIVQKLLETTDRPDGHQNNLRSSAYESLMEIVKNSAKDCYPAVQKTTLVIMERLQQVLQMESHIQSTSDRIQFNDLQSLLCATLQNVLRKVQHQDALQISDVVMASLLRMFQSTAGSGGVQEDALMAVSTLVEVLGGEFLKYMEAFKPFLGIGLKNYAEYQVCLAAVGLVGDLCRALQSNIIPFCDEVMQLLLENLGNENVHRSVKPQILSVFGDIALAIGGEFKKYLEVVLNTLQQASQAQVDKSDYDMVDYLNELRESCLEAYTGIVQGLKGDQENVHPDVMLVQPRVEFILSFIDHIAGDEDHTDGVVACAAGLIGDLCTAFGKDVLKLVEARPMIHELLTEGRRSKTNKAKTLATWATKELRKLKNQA
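FRET biosensor (snurportin 1 IBB flanked by EYFP and cerulean), 50 nM, with compound 5 min, then 0.125 microM importin beta in PBS, 1 mM DTT, 0.02% Tween-20, 0.1% BSA. CFP/YFP ratio read after 45 min at room temperature; pre-read flags interference.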
miR-21 reporter: raises the signal of a miR-21 reporter | HeLa miR-21 FLuc reporter, luciferase, 48 h | Potency, µM (top dose mostly 38.3 µM), for inactives: at the highest dose reporter change, positive = more light | 340,000 tested, under 10 active | AID 2288; active = well fitted rising curve with a large enough effect; inconclusive = small, poorly fitted or top-dose-only effect; inactive = no such curve, though single readings can be large or run the other way;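 further: % of control where 0% means no effect; miR-21 action dims this reporter so a rising signal means less miR-21 action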
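HeLa miR-21-FLuc reporter line, endogenous miR-21; 2000 cells/well in DMEM/10% FBS; compound titration up to ~40uM final, 48 h, 37 degree Celsius; luciferase detection reagent, 15 min lysis, CCD luminescence.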
Rango dissoc inh: inhibition of RanGTP-driven Rango-importin beta dissociation | Biochemical FRET Rango-importin beta, RanGTP-induced dissociation | Potency, µM (top dose mostly 46.1 µM), inactives show at the top dose activity change, negative = inhibition | actives 0.071% (n = 340,000) | AID 540253; active means falling FRET ratio curve, often poorly fitted, with flat reads before Ran was added; inconclusive means other falling curves, or compound fluorescence or quenching; inactive means flat or rising ratio curve;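 further: potency means the concentration at half of the fitted maximal effect; % of control where 0% means no effect; nearly all actives have a fitted effect of over 45% in size; -100% = wells without RanGTP and RCC1; the record marks most hits as doubtful in a second field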
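Rango/importin beta premix (0.1/0.25 uM final), PBS + 1 mM DTT + 0.02% Tween-20 + 0.1% BSA; cpd 5 min RT; FRET pre-read; + RanGTP-RCC1 (0.6 uM Ran, 2 mM GTP, 0.2 uM RCC1); 45 min RT; FRET post-read, ex 430, em 486/530 nm.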
GLA inh pH 4.5: inhibitors of human alpha-galactosidase A at pH 4.5; P06280; purified enzyme, 4-MU-alpha-Gal fluorescence, pH 4.5; activity change, negative = inhibition, % at 105 µM; 230,000 tested, under 10 active; AID 1467; inconclusive = small, poorly fitted or top-dose-only inhibition, or a rising curve; inactive = flat fitted curve, though single readings scatter; no compound was filed as active;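 further: 0% = full activity with enzyme and -100% = basal without enzyme; dose as in the result columns while the protocol names 77 µM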
* = called active by the depositor; ? = inconclusive; . = not tested or not shown.

SMILES	Rango complex inh	miR-21 reporter	Rango dissoc inh	GLA inh pH 4.5
CCN(C[C@H]1N[C@@](Cc2ccccc2)(C(=O)OC)[C@H]2C(=O)N(Cc3ccccc3)C(=O)[C@@H]12)S(=O)(=O)c1ccc(C)cc1	-1.4%	.	3.4%	.
Cc1ccc(NC(=O)c2cc(N3C(=O)C4CC=CCC4C3=O)ccc2N2CCCCC2)cc1 (stereo not given)	-2.2%	1.6%	-15.0%	2.1
O=C(N/N=C/c1cccs1)c1cc(-c2ccncc2)nc2ccccc12	-1.0%	27.5%	1.0%	-14.2
O=C(CN1CC[n+]2c(-c3cccs3)csc21)c1ccc(Br)cc1	0.0%	13.3%	10.3%	.
CCCC[C@H](CC(=O)c1ccccc1)[C@@H](OC(C)=O)C(=O)Oc1c(C(C)C)cccc1C(C)C	-0.7%	.	13.1%	.
CN1CCN(S(=O)(=O)c2ccc(NC(=O)C(C)(C)C)cc2)CC1	2.6%	-0.4%	0.9%	-4.3
COc1cccc(NC(=O)Cn2nnc(-c3ccccc3N)n2)c1	-1.3%	-8.3%	1.5%	-1.5
CCCS(=O)(=O)c1nc(S(=O)(=O)c2ccc(C)cc2)c(NCCCN2CCOCC2)s1	-1.5%	1.4%	-10.1%	4.8
CCc1nnc(NC(=O)CCC(=O)N2CCN(c3cc(Cl)ccc3C)CC2)s1	3.7%	11.8%	-1.3%	.
O=C(NCCCN1CCOCC1)/C(=C/c1cccs1)NC(=O)c1ccccc1	-0.3%	-1.8%	-1.5%	.
COC(=O)c1sccc1NC(=O)CSc1nnnn1-c1ccccc1C	1.2%	0.1%	1.6%	-4.9
Cc1sc(N/N=C/c2cccnc2)nc1-c1ccc(Cl)cc1	-0.7%	-23.4%	0.1%	1.6
O=C(Nc1ccc(NC(=O)C2CC2)cn1)c1ccccc1Cl	-1.2%	-16.4%	14.9%	-5.5
O=C(Cn1cnc2ccc(Cl)cc2c1=O)NC1CCS(=O)(=O)C1 (stereo not given)	0.4%	.	-6.2%	.
Cc1nc(NC(=S)NC(=O)COc2ccccc2Cl)ccc1Br	0.3%	-3.0%	3.2%	-0.6
COc1cc([C@@H]2CC=C(C(=O)O)[C@H](c3ccc(F)cc3)N2S(=O)(=O)c2ccc(C)cc2)cc(OC)c1OC	0.2%	.	-3.4%	.
CCN1CCN(C2=CC3=CC(=C(C#N)C#N)CCC3CC2)CC1 (stereo not given)	?	-1.0%	?	-7.0
N#CC1C(=O)NC(N2CCN(c3ccccc3)CC2)=NC12CCCCC2 (stereo not given)	-2.5%	-3.0%	13.4%	4.1
COc1ccc(CNC(=O)c2ccc(Br)cc2)cc1	.	-21.7%	.	2.8
COc1ccc(-c2nnc(SCC(=O)Nc3cccc(Cl)c3)o2)cc1	?	-45.9%	0.9%	5.8
CC1=C(C(=O)O)N2C(=O)C(NC(=O)c3ccn(C)n3)C2SC1 (stereo not given)	-2.4%	-0.9%	-4.6%	9.5
COC(=O)CCN(c1ccccc1)S(=O)(=O)c1cc(-c2cc(C)no2)ccc1C	6.0%	3.8%	-3.6%	.
CCCCN(C(=O)c1cnc(C)cn1)c1c(N)n(CCC)c(=O)[nH]c1=O	1.7%	.	-16.6%	.
COC(=O)[C@@]12CCCCN1[C@H](c1ccc(-c3ccc(OC)cc3)c(OC)c1)[C@@H]1C(=O)N(C)C(=O)[C@@H]12	6.3%	.	-4.6%	.
CCOc1ccccc1-n1c(SCC(=O)NC(C)CC)nnc1-c1ccoc1C (stereo not given)	-0.3%	-3.5%	4.8%	3.7
Cc1ccc(N(CC(=O)NC2CCCC2)C(=O)c2nsc(Cl)c2Cl)cc1	2.6%	6.4%	0.9%	.
O=C(CCN1C(=O)c2ccccc2C1=O)NCc1cccc(Cl)c1	-0.3%	-0.3%	1.9%	.
O=C(O)c1cccnc1SC1CC(=O)N(c2ccccc2)C1=O (stereo not given)	2.0%	2.3%	-10.1%	1.7
Cc1c(C=N)c(O)n(C)c(=O)c1C#N	1.2%	-0.9%	5.7%	-10.9
O=C(Cn1cnc2ccccc21)N/N=C/c1cccs1	-1.1%	-11.2%	6.2%	8.0
CCn1cc(CN2CCCC(C(=O)Nc3cccc(-n4cccn4)c3)C2)c(C)n1 (stereo not given)	-2.3%	-3.8%	?	.
CCOC(=O)CNC(=O)Cn1cnc2c(nnn2-c2ccc(OC)cc2)c1=O	-1.4%	-0.1%	6.7%	.
Cc1cc(S(=O)(=O)NCC(C)C)ccc1OCC(=O)N1CCOCC1	1.5%	-4.9%	1.1%	-5.9
Clc1nc(Nc2ccccc2)nc(Nc2ccccc2)n1	-5.4%	-17.1%	-7.3%	-6.4
Cc1nc2nc(-c3ccccc3)nn2c(C)c1Cl	-0.2%	.	2.1%	.
CC(=O)OCC1=C(C(=O)O)N2C(=O)[C@@H](NC(=O)CSc3ccncc3)[C@H]2SC1	?	.	?	-4.6
CC(C)(C)n1nc(C2CC2)cc1NC(=O)Nc1ccc(Cl)cc1	-0.2%	-4.9%	-1.8%	-8.7
Cc1csc(SCCn2c(N3CCCC3)nc3c2c(=O)[nH]c(=O)n3C)n1	-3.5%	-6.8%	0.8%	1.2
O=C(NNC(=S)NC1CCCCC1)c1ccc2c(c1)OCO2	-3.0%	-52.6%	-5.7%	6.8
COCCNC(=O)[C@H](CSCc1ccccc1)N1Cc2ccccc2C1=O	-0.2%	4.4%	15.9%	4.2
CCOC(=O)CSC1=Nc2ccccc2C2=NC(CC(=O)NCc3ccccc3)C(=O)N12 (stereo not given)	1.3%	0.0%	-9.8%	5.8
CCOC(=O)C1=C(CN2CCN(CCC#N)CC2)NC(=O)NC1c1ccc2c(c1)OCO2 (stereo not given)	-2.9%	2.1%	-11.4%	2.7
O=C(COc1cccnc1[N+](=O)[O-])Nc1ncc(Cl)cc1Cl	?	.	-16.6%	.
O=C(NCc1ccccc1)c1ccc(OC2CSC2)cc1	-0.3%	-19.4%	10.2%	-7.5
COc1ccc(-c2nc(CS(=O)CC(=O)N3CCCC3)c(C)o2)cc1 (stereo not given)	?	-0.2%	-4.1%	10.3
CCc1cc2c(=O)c(-c3ccc4c(c3)OCCO4)coc2cc1OC(=O)c1ccco1	-3.0%	-53.3%	2.2%	6.2
COc1cc(CN2CCNC(=O)C2CC(=O)NCCCC2CCCC2)cc(OC)c1 (stereo not given)	-5.6%	-17.3%	-4.6%	.
O=C(O)CCC(=O)Nc1ccc(OCC(=O)O)cc1	4.4%	-1.0%	-0.5%	5.1
CCCCSc1nnc([C@@H]2CCCN2C(=O)OC(C)(C)C)o1	2.3%	-8.0%	3.1%	-14.8
O=C(CCc1nc2ccccc2[nH]1)Nc1ccccc1	1.6%	-10.9%	-19.6%	0.0
COc1ccc(CCN=C(N)NS(=O)(=O)c2ccc(C)cc2)cc1	8.2%	-10.7%	0.5%	-4.8
CCOC(=O)/C(C#N)=C/Nc1cc(F)ccc1C	-1.8%	-20.0%	12.7%	-15.6
CC1CCCCN1S(=O)(=O)c1ccccc1[N+](=O)[O-] (stereo not given)	0.0%	-0.7%	5.0%	5.6
Cc1ccc(N2CC(C(=O)OCc3nnc(-c4ccccc4)o3)CC2=O)cc1 (stereo not given)	2.9%	.	11.4%	.
COC(=O)c1cc(=O)n(C2CC2)c(=NC2CC2)s1	-0.1%	-4.0%	-3.6%	-6.8
CC1CCCCN1c1nc2nonc2nc1N1CCCCC1C (stereo not given)	-5.4%	-5.6%	1.1%	0.9
CCCCNC(=O)c1ccc(CS(=O)(=O)c2ccc(OC)cc2)o1	-4.7%	0.3%	-8.6%	0.4
CS(=O)(=O)Nc1cccc(C2=NN(S(=O)(=O)c3ccccc3)C(c3cccs3)C2)c1 (stereo not given)	3.5%	-4.0%	-0.3%	-18.9
Cc1cc(C)n(CC(=O)n2c3ccccc3c3ccccc32)n1	-0.4%	-0.4%	-16.5%	1.8
O=C(O)c1ccc(/C=C2\SC(=S)N(NC(=O)c3ccccc3)C2=O)cc1	4.6%	-1.8%	12.2%	.

Compound profiles, from the list above. Order of values: Rango complex inh, miR-21 reporter, Rango dissoc inh, GLA inh pH 4.5
Record of CC1CCCCN1S(=O)(=O)c1ccccc1[N+](=O)[O-] (stereo not given) = 0.0%, -0.7%, 5.0%, 5.6
Record of COC(=O)c1cc(=O)n(C2CC2)c(=NC2CC2)s1 = -0.1%, -4.0%, -3.6%, -6.8

(cont.)
SMILES	Rango complex inh	miR-21 reporter	Rango dissoc inh	GLA inh pH 4.5
CCOc1ccc(-c2nnc3sc(-c4ccccc4OC)nn23)cc1	0.3%	.	1.3%	.
O=C(O)CCn1cc(/C=C2\SC(=S)NC2=O)c(-c2ccccc2)n1	0.0%	9.3%	-10.0%	3.2
COc1ccc(NC(=O)Nc2ccc(OC)c(OC)c2)c([N+](=O)[O-])c1	?	-10.7%	-10.2%	-0.8
COc1ccc(-c2cc3ccccc3oc2=O)cc1NC(=O)c1cccnc1	0.3%	-8.6%	35.4%	4.9
CC(=O)Nc1ccc(C(=O)NC(C)c2ccc(-n3ccnc3)cc2)cc1 (stereo not given)	-4.7%	-3.0%	-4.7%	.
Cc1cc(NC(=O)c2cccc(S(=O)(=O)N3CCOCC3)c2)c2ccccc2n1	0.2%	18.5%	4.1%	3.2
COc1ccc2cc(CCNC(=O)c3ccc(Br)o3)c(=O)[nH]c2c1	-3.4%	-6.1%	-1.5%	12.8
O=C(Cn1c(-c2ccccc2)noc1=O)Nc1ccc(N2CCCCCC2)cc1	-1.9%	-8.3%	-7.8%	-9.7
Cc1ccc(C(=O)CC2(O)C(=O)Nc3ccccc32)s1 (stereo not given)	-0.4%	0.1%	0.7%	0.4
O=C1c2ccccc2NC2CCCCC12 (stereo not given)	-1.2%	-14.7%	11.3%	4.2
C=CCOc1ccc(C(=O)CC)cc1OC	4.0%	-17.0%	-7.9%	-7.4
CCOC(=O)c1c(C)[nH]c(C(=O)NCCc2ccc(OC)c(OC)c2)c1C	-2.8%	-1.8%	-17.2%	.
COC(=O)c1ccc(NC(=O)c2cc(Cl)ccc2OC)cc1	3.9%	0.3%	-0.9%	-5.8
O=C(c1cccs1)N1CCN(c2nc3ccccc3s2)CC1	-3.5%	-3.8%	-5.1%	.
CN1CCCN(C(=O)c2cc(-c3ccc(Cl)c(Cl)c3Cl)nc3ccccc23)CC1	1.0%	-8.2%	2.0%	4.2
CC(C)(C)NC(=O)CC1C[C@H](C(=O)N2CCOCC2)[C@@]2(CCC3CCCC3)c3[nH]c4ccccc4c3CCN2C1=O (stereo not given in full)	-0.1%	.	2.7%	.
Clc1ccc(CSc2nnc(-c3ccncc3)o2)cc1	0.4%	17.5%	13.9%	2.5
COc1ccccc1OCCn1c(C(C)O)nc2ccccc21 (stereo not given)	-1.3%	-2.5%	-12.5%	-3.7
CCc1cccc(NC(=O)CCNC(=O)Cn2ccc3ccccc3c2=O)c1	1.7%	-1.1%	-9.6%	.
O=C1/C(=C/c2cccnc2)SC(=S)N1CC1CCCO1 (stereo not given)	7.5%	-0.7%	13.6%	-5.6
Cc1ccc(NC(=S)NCc2ccc3[nH]c4c(c3c2)CCCC4)cc1	?	8.7%	?	4.2
COc1ccc(N(CC(=O)NC2CCCC2)C(=O)c2csnn2)cc1	3.3%	-7.8%	11.8%	-14.9
COC(=O)c1ccc(OC(=O)c2ccco2)cc1	0.7%	-1.9%	2.5%	0.7
CCc1cc(=O)oc2c(C)c(OC(C)C(=O)NCC3CCC(C(=O)O)CC3)ccc12 (stereo not given)	-2.9%	-3.3%	1.0%	.
CCn1nnc(NC(=O)c2cc3ccccc3o2)n1	0.1%	-44.8%	0.6%	-12.4
O=S(=O)(Cc1ccccc1)NCCc1cccc(Cl)c1	2.3%	-10.7%	21.6%	.
COc1ccc(OC)c(N(CC(=O)NC2CCCCCC2)S(=O)(=O)c2ccc(C)cc2)c1	3.0%	0.9%	-5.9%	.
CC(=O)N1CCc2cc(S(=O)(=O)CCC(=O)N3CCN(c4cc(C)ccc4C)CC3)ccc21	0.8%	1.0%	17.7%	.
O=C(O)c1ccc(C=NN2CCCCCC2)cc1	0.7%	.	14.4%	.

Screening data: PubChem BioAssay, National Center for Advancing Translational Sciences (NCATS)

Some of the compounds tested; the hit share may differ from the screen's.
